High-throughput results as filed in PubChem.
Autofluor counter: compound fluorescence in toxin protease inhibitor counterscreen. compound autofluorescence counterscreen, microsphere flow cytometry; hits give high values. fluorescence intensity (concentration not given with the values). 360,000 compounds, 3.1% hits. AID 624483;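 active means at least 3 SD above the mean of all compounds, about 16000 in these data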;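 further: 100 nL of 1 mM stock went into each well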
* = called active by the depositor. The list is partial; rates above refer to the full screens.

nr | Molecule | Autofluor counter
1 | FC(F)(F)c1cccc(CC2CN(Cc3ccccc3)Cc3ccccc3N2c2cc(Cl)cc(Cl)c2)c1 (centres undefined) | 3859
2 | C=CC12CN(C)C3C4COC(CC41)C1(C(=O)Nc4ccccc41)C32 (centres undefined) | 5258
3 | CCOC(=O)[C@]12CCC=C1N(Cc1cccc3ccccc13)C(=O)[C@H](CC(=O)NCc1cccs1)C2 | 4166
4 | COCC#Cc1ccc2c(c1)O[C@@H](CN(C)S(=O)(=O)c1cccc(F)c1)[C@@H](C)CN([C@H](C)CO)S2(=O)=O | 3510
5 | CC(=O)Nc1cccc(-c2ccnc3c2CC(C)(C(=O)NCCc2ccccc2)O3)c1 (centres undefined) | 3131
6 | NC(Cc1ccc(C(F)(F)F)cc1)c1csc(NC(=O)Nc2ccccc2Oc2ccccc2)n1 (centres undefined) | 3877
7 | C[C@H]1CN([C@@H](C)CO)C(=O)CCCn2nncc2CO[C@H]1CN(C)S(=O)(=O)c1ccccc1 | 2926
8 | C[C@H]1CN([C@@H](C)CO)S(=O)(=O)c2ccc(Br)cc2O[C@H]1CN(C)C(=O)c1cnccn1 | 3691
9 | C[C@@H]1CN([C@H](C)CO)C(=O)CCCn2cc(nn2)CO[C@H]1CN(C)S(=O)(=O)c1cccc(C#N)c1 | 3903
10 | CCOc1ccc(NC(=O)c2cccc(S(=O)(=O)NCc3cccnc3)c2)cc1 | 3785
11 | O=C(COC(=O)/C=C/c1ccc(Cl)cc1Cl)Nc1cccc(S(=O)(=O)NC2=NCCC2)c1 | 3654
12 | COc1cc2c(cc1OC)C(CNC(=O)C=Cc1cc(OC)c(OC)c(OC)c1)C2 (centres undefined) | 2878
13 | COc1ccc(CC(=O)NCc2cccc(Cl)c2)cc1S(=O)(=O)N1CCOCC1 | 3456
14 | CC1C(=O)CC2(C(C)C)CC12 (centres undefined) | 5815
15 | CC(=O)Nc1ccc(S(=O)(=O)NCc2ccc(C(=O)NCCN(C)Cc3ccccc3)cc2)cc1 | 2906
16 | Cc1ccc(S(=O)(=O)N2C[C@H]3N(C(=O)OC(C)C)N(C(=O)OC(C)C)C[C@H](OC(=O)Nc4c(C)noc4C)[C@@]3(O)C2)cc1 | 3330
17 | O=C(Nc1ccc2c(c1)OCCO2)C(CCc1ccccc1)N(Cc1ccccc1)Cc1ccccc1 (centres undefined) | 6192
18 | FC(F)C(F)(F)Oc1cccc(Nc2nccn3c(-c4ccc5ccccc5c4)cnc23)c1 | 2983
19 | CN(C)c1nc(N)nc(CSc2nnnn2-c2ccc(Cl)cc2)n1 | 3379
20 | N#Cc1cccc(NC(=O)c2cc(C3CCCCN3S(=O)(=O)c3ccccc3)on2)c1 (centres undefined) | 3166
21 | COc1cc(CCC(=O)Nc2cc(S(=O)(=O)N3CCOCC3)ccc2OC(C)C)cc(OC)c1OC | 4037
22 | OC(c1ccccc1)(c1nc(/C=C/c2ccccc2)cs1)C(F)(F)F (centres undefined) | 4092
23 | O=C1C=C(O)CC2(CCCCC2)C1 | 5714
24 | O=C(NCc1cccs1)c1ccc2nc([C@@H]3O[C@H](CO)[C@H](O)[C@H](O)[C@H]3O)[nH]c2c1 | 4031
25 | [O-][N+](=Cc1c(Cl)cccc1Cl)CC1(O)CCCCC1 | 3767

Next part, starting with the last 3 of the part before.
nr | Molecule | Autofluor counter
23 | O=C1C=C(O)CC2(CCCCC2)C1 | 5714
24 | O=C(NCc1cccs1)c1ccc2nc([C@@H]3O[C@H](CO)[C@H](O)[C@H](O)[C@H]3O)[nH]c2c1 | 4031
25 | [O-][N+](=Cc1c(Cl)cccc1Cl)CC1(O)CCCCC1 | 3767
26 | COc1cccc(Nc2nc(CN)cs2)n1 | 2919
27 | CCOC(=O)[C@]12CCC=C1N(CCC1=CCCCC1)C(=O)[C@H](CC(=O)N1CCC(c3ccccc3)CC1)C2 | 4263
28 | Cc1ccc2ccccc2c1C(O)c1ncc(-c2ccccc2F)[nH]1 (centres undefined) | 3039
29 | COc1ccccc1Cc1c(C2CCCCC2)nc2ccc(C)cn12 | 6965
30 | COc1cccc(Nc2ncnc3ccc(Br)cc23)c1 | 4126
31 | O=C(Cn1cc(COc2ccc3ccccc3c2)nn1)NS(=O)(=O)c1cccc(OC(F)F)c1 | 2717
32 | CC(C)C(C=Cc1ccccc1)=NNS(=O)(=O)c1ccccc1 | 5798
33 | CCOc1ccccc1OCC(=O)NC1CCSc2ccccc21 (centres undefined) | 3258
34 | C[N+](C)(C)CCNC(=O)c1c[nH]c2ccccc12 | 5516
35 | COc1ccccc1S(=O)(=O)N(C)C[C@@H]1OCc2cnnn2CCCC(=O)N([C@H](C)CO)C[C@H]1C | 3747
36 | CC(=O)Nc1cc(-c2ccc(C(=O)N3CCOCC3)cc2)cn2c(-c3ccccc3)cnc12 | 4215
37 | CCNC(=O)c1cc2c(c(-c3cccc(-c4ccccc4F)c3)n1)[C@@H](CCO)N(C(=O)CC)C2 | 5640
38 | O=C(NCC1CC1)C1Cc2c(-c3ccccc3Oc3ccccc3)ccnc2O1 (centres undefined) | 2858
39 | OCc1ccccc1-c1nc(NCC2CC2)nc2ccsc12 | 2892
40 | C[C@@H]1CN([C@@H](C)CO)C(=O)CCCn2nncc2CO[C@H]1CN(C)C(=O)Nc1ccc(C(F)(F)F)cc1 | 3876
41 | COc1ccc(CN2C[C@@H](CO)O[C@@H](n3cnc4c(NCc5ccc(F)cc5)ncnc43)C2)cc1 | 2773
42 | CC1(C(=O)Nc2ccc3ccccc3c2)CCC(=O)N1C1CC1 (centres undefined) | 4508
43 | Cc1ccc(Cc2c(-c3ccc(F)cc3)nc3c(Cl)cc(C(F)(F)F)cn23)cc1 | 6020
44 | COc1ccc(CN2C(=O)c3ccccc3C2c2nnnn2-c2ccc3c(c2)OCCO3)cc1 (centres undefined) | 4321
45 | CCOc1ccc(/C=N/NC(=O)c2ccncc2)cc1OC | 3728
46 | CSc1ccc(CN2CCC(C)(Oc3cccc(C#N)c3)C2)cc1 (centres undefined) | 4085
47 | COC(=O)[C@@]1(Cc2ccc(F)cc2)[C@H]2c3cc(C(=O)N4CCCC4)n(CC4CC4)c3C[C@H]2CN1C(=O)c1ccccc1 | 6143
48 | COc1ccc(-c2ccc3c(c2)CNCc2cnnn2-3)cc1 | 5477
49 | CC1=C(C(=O)N(C(C)C)C(C)C)CC(CC(=O)NCCN2CCOCC2)C(=O)N1Cc1ccc(C(C)(C)C)cc1 (centres undefined) | 6290
50 | O=C(NCCN1CCCC(O)C1)c1cc(COc2cccc(C(F)(F)F)c2)on1 (centres undefined) | 4061

An excerpt from above in order of number of heavy atoms, smallest number first:
nr | Molecule | Autofluor counter
23 | O=C1C=C(O)CC2(CCCCC2)C1 | 5714
2 | C=CC12CN(C)C3C4COC(CC41)C1(C(=O)Nc4ccccc41)C32 (centres undefined) | 5258
22 | OC(c1ccccc1)(c1nc(/C=C/c2ccccc2)cs1)C(F)(F)F (centres undefined) | 4092
49 | CC1=C(C(=O)N(C(C)C)C(C)C)CC(CC(=O)NCCN2CCOCC2)C(=O)N1Cc1ccc(C(C)(C)C)cc1 (centres undefined) | 6290

Further entries
nr | Molecule | Autofluor counter
51 | O=C(Nc1ccc(Cl)c(C(F)(F)F)c1)C1Cc2c(-c3ccc4c(c3)OCO4)ccnc2O1 (centres undefined) | 3541
52 | CS(=O)(=O)N1CCCCC1c1cc(C(=O)Nc2ccc3c(c2)OCO3)no1 (centres undefined) | 3964
53 | CC(=O)Nc1cc(-c2ccc(C(=O)N3CCOCC3)cc2)cn2c(-c3ccc(F)cc3)cnc12 | 3512
54 | CN1OC[C@@H]2CN(S(=O)(=O)c3ccccc3)[C@H](c3ccc(-n4ccnc4)cc3)C[C@@H]21 | 5998
55 | O=C(Nc1cccc(Oc2ccccc2)c1)C1Cc2c(-c3ccco3)ccnc2O1 (centres undefined) | 3261
56 | NC(=O)c1cccc(-c2ccnc3c2CC(C(=O)NCCc2ccccc2)O3)c1 (centres undefined) | 3796
57 | Cc1ccccc1NC(=O)C(C)OC(=O)C1CCCO1 (centres undefined) | 3979
58 | CC1CCCN(S(=O)(=O)c2ccc3c(c2)OCCO3)C1 (centres undefined) | 3887
59 | Cc1noc(C)c1NC(=O)Nc1ccc2c(c1)C(=O)N([C@H](C)CO)C[C@H](C)[C@@H](CN(C)S(=O)(=O)c1ccc(Cl)cc1)OCCCC[C@@H](C)O2 | 3699
60 | C=CCN(c1ccc(F)cc1)S(=O)(=O)c1cc(C(=O)NC2CC2)ccc1Cl | 2791
61 | COc1ccc(C2=Nc3ccccc3NC(=O)C2N(Cc2ccc(F)cc2)C(=O)c2ccco2)cc1 (centres undefined) | 5514
62 | CC(NC(=O)C1CCN(Cc2ccc(Oc3ccccc3)cc2)CC1)c1cccc2ccccc12 (centres undefined) | 4124
63 | COC(=O)c1ccc(Cn2c(C)c(C(=O)NCc3ccco3)sc2=O)o1 | 3844
64 | COc1cc(NC(=O)CC[C@H]2O[C@@H](n3cnc4c(NC(=O)c5ccccc5)ncnc43)[C@H](O)[C@@H]2O)cc(OC)c1OC | 5233
65 | CC(C)C(N)c1csc(Nc2ccc(C(F)(F)F)cn2)n1 (centres undefined) | 3983
66 | CN(C)c1cccc(CNC(=O)c2ccc3nc([C@H]4C[C@H](O)[C@@H](CO)O4)[nH]c3c2)c1 | 3943
67 | CCOC(=O)C1CCC(C(=O)OCC)N1c1ccc(C=O)cc1 (centres undefined) | 4567
68 | CC1(C)C(=Cc2ccccc2)C(=O)c2ccccc21 | 4232
69 | COCCCn1c(C(=O)Nc2ccc3c(c2)OCO3)cc2c(=O)n3cccc(C)c3nc21 | 2878
70 | O=C1C(CCc2ccccc2)ON=C(c2cnccn2)N1Cc1ccc(F)cc1 (centres undefined) | 5589
71 | NC(c1csc(Nc2ncccn2)n1)c1ccccc1Cl (centres undefined) | 3947
72 | Cc1cccc(CNC(=O)c2sc(=O)n(Cc3ccc(S(C)(=O)=O)cc3)c2C)c1 | 3947
73 | CCOC(=O)C1(C)CCN1C(=O)c1cc(C)oc1C (centres undefined) | 4019
74 | CC1(C(=O)NS(=O)(=O)c2cccc(C#N)c2)CCN1C(=O)CCc1ccccc1 (centres undefined) | 3688
75 | Cc1cc2oc(=O)cc(CN(Cc3ccccc3)Cc3ccccc3)c2cc1Cl | 6097

For convenience, four of the compounds above:
nr | Molecule | Autofluor counter
72 | Cc1cccc(CNC(=O)c2sc(=O)n(Cc3ccc(S(C)(=O)=O)cc3)c2C)c1 | 3947
73 | CCOC(=O)C1(C)CCN1C(=O)c1cc(C)oc1C (centres undefined) | 4019
74 | CC1(C(=O)NS(=O)(=O)c2cccc(C#N)c2)CCN1C(=O)CCc1ccccc1 (centres undefined) | 3688
75 | Cc1cc2oc(=O)cc(CN(Cc3ccccc3)Cc3ccccc3)c2cc1Cl | 6097

Additional structures.
nr | Molecule | Autofluor counter
76 | CNC(=O)C[C@H]1C(=O)N(c2ccc(OC)cc2)C[C@@H]1C | 3698
77 | CC1(C(=O)NCc2ccc(F)c(F)c2)Cc2c(-c3ccccc3)ccnc2O1 (centres undefined) | 3884
78 | ClC(Cl)(Cl)C1=NCc2nnn(Cc3ccccc3)c2N1 | 6608
79 | Cn1c(=O)c2cc(NC(=O)NCCc3cccs3)ccc2n1-c1ccc(C(C)(C)C)cc1 | 3886
80 | Cc1cc(C)nc(NS(=O)(=O)c2ccc(NCN3C(=O)c4ccccc4C3=O)cc2)n1 | 3616
81 | Cc1ccc(S(=O)(=O)N(C)C[C@@H]2OCc3ccccc3-c3c(n(C)c4ccccc34)C(=O)N([C@H](C)CO)C[C@@H]2C)cc1 | 3681
82 | Cc1cccc(-c2cnc(C(O)Cc3ccccc3)[nH]2)c1 (centres undefined) | 2968
83 | C[C@@H]1CN([C@H](C)CO)C(=O)c2cc(C#CC3CC3)cnc2O[C@H]1CN(C)S(C)(=O)=O | 3606
84 | CCCC1NC(=O)c2cc3ccccc3cc2-n2c1nc1cc(F)ccc1c2=O (centres undefined) | 3538
85 | CC(=O)Nc1ccc(C(C#N)=Cc2ccc(N(C)CCC#N)cc2)cc1 | 3898
86 | COc1cccc(C(=O)NCC2CCCN(C(=O)Cc3cccc(C)c3)C2)c1OC (centres undefined) | 3754
87 | Cc1ccc(CNC(=O)CSc2nnc(CNC(=O)c3ccc(F)cc3)o2)cc1 | 3643
88 | CCOC(=O)c1ccc(Nc2ccc(C(C)=O)cc2)cc1 | 6263
89 | COc1ccc(C(=O)NC(=S)Nc2ccc3[nH]c(=O)[nH]c3c2)cc1Br | 4284
90 | O=C(NCC1=C(c2ccc3ccccc3c2)C[C@@H]2CC[C@H]1N2Cc1ccco1)c1cccs1 | 3676
91 | CC(=O)NC(c1ccccc1)c1nc(-c2cccc(C(C)C)c2)cs1 (centres undefined) | 3402
92 | COc1ccc(C(C)(O)c2nc(-c3ccc4ccccc4c3)cs2)cc1 (centres undefined) | 4066
93 | C[C@@H]1CN([C@H](C)CO)C(=O)CCCn2cc(nn2)CO[C@H]1CN(C)C(=O)c1ccc2ccn(C)c2c1 | 6339
94 | N#CCCCc1cn(-c2nc3ccccc3s2)nn1 | 6507
95 | COc1ccccc1-c1cnc(C(O)c2cc(C)c(OC)c(C)c2)[nH]1 (centres undefined) | 3498
96 | N#CCCn1cc(C(=O)CN2C(=O)NC3(CCc4ccccc43)C2=O)c2ccccc21 (centres undefined) | 5049
97 | COc1ccc(Cc2c(C(C)(C)C)nc3ccc(Cl)cn23)c(C)c1 | 10239
98 | CCOC(=O)C1=CCN(S(=O)(=O)c2ccccc2C)C1c1ccc(Cl)c(Cl)c1 (centres undefined) | 5930
99 | CCC(CC)C(=O)N(C)c1c(C)nc2c(OCC3CCCCC3)cccn12 | 3945
100 | O=C(C[C@H]1C(=O)N(C2CCCCC2)C[C@@H]1c1ccccc1)Nc1ccc(Br)cc1 | 3019
101 | CC1(C(=O)Nc2cnc3ccccc3c2)CCN1C(=O)CCc1ccccc1 (centres undefined) | 4013
102 | CCCNC(=O)c1cc(C2CCCCN2S(=O)(=O)c2ccccc2)on1 (centres undefined) | 3146
103 | CCN(CC)c1c(C)nc2ccc(C(=O)Nc3cc(-c4ccccc4)ccc3OC)cn12 | 3607

Entries by screen from the list.
Autofluor counter for nos. 91 to 102 → 3402, 4066, 6339, 6507, 3498, 5049, 10239, 5930, 3945, 3019, 4013, 3146
